Mtb H37Rv = M. tuberculosis H37Rv growth inhibitors, H37Rv strain (AID 1626); M. tuberculosis H37Rv growth inhibition; higher % means a stronger effect; one-dose inhibition, % at 10 µM; IC50 in µM for titrated hits; actives 0.95% (n = 220,000);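 active = confirmed in a dose series; inconclusive = inhibition above 80% but not taken into the dose series; inactive = below 80% or under 30% at every dose of the series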;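 also: bacteria incubated seven days before Alamar blue readout; 0% = bacteria only wells and 100% = bacteria with antibiotic wells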
YopH inh = inhibitors of Yersinia enterocolitica YopH tyrosine phosphatase; inhibition, %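 (about 10 µM by stock and volumes)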; actives 0.16% (n = 140,000); fluorescence Ex485/Em525; AID 898;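 active = inhibition of 50% or more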;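 also: controls were vehicle for no effect and minimum signal wells for full effect; inactives centre near -20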
Mtb bLac sens = beta-lactam sensitization of Mtb H37Rv. M. tuberculosis H37Rv growth with meropenem, percent inhibition; hits of this screen are not shown here. actives 0.27% (n = 330,000). inhibition, % at 25 µM;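 active = about 74% or more and at least 40 points above the plate without the antibiotic, then above 30% in a dose series; inconclusive = first-round hits that could not be retested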;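 also: growth measured after seven days incubation then overnight dye step; 0% = bacteria only wells and 100% = bacteria with antibiotic; twin plates without the antibiotic show which effects depend on it; some results filed as inactive read as strong as hits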
Arbovirus inh = blocks arbovirus infection | actives 0.37% (n = 200,000) | arbovirus infection cell-based antiviral screen | AID 1251 | inhibition, % at 10 µM;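 active = inhibition from about 30%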;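 also: bluetongue infection of BSR cells; cell survival read as ATP light after 72 h; 0% = infected wells without compound and 100% = uninfected wells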
RecA intein inh = inhibitors of M. tuberculosis RecA intein splicing. P9WHJ3. cell-free RecA intein splicing, fluorescence. inhibition, %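 (about 9 µM by stock and volumes)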. actives 0.75% (n = 290,000); in the data active = inhibition above about 30%; inconclusive = no clear call, values can overlap the other calls;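 also: 0% = vehicle wells and 100% = reference inhibitor control wells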
Target sequence (P9WHJ3 whole entry, looked up): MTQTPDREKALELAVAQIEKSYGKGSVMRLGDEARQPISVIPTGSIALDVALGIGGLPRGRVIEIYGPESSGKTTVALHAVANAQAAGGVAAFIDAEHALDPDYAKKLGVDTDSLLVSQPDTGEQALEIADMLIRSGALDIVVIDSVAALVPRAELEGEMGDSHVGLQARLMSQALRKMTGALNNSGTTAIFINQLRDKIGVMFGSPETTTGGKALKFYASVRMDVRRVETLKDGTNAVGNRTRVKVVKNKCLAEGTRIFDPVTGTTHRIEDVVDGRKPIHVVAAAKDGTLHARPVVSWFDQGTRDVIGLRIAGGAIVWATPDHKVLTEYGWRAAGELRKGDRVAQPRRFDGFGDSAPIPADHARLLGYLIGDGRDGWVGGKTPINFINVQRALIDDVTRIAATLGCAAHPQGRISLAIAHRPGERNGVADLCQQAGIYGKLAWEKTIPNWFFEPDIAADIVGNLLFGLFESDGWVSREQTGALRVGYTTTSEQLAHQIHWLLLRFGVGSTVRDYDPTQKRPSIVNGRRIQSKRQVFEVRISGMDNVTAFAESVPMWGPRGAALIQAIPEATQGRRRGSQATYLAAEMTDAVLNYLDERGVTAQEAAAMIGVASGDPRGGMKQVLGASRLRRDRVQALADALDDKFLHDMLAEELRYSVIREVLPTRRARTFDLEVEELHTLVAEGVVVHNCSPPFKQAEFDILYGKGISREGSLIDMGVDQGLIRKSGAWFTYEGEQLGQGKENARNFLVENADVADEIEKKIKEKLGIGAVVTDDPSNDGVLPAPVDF
Arbovirus inh repeat = further read-out of Arbovirus inh, marked with its call; inhibition, %; measured here: 10K subset replicate screen; many hits read low in the repeat;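 first of two repeat runs on a subset; 0% = infected and 100% = uninfected wells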
* marks the source's active call; other numbers are inactive results; ? = inconclusive; · = no result given.

SMILES	Mtb H37Rv	YopH inh	Mtb bLac sens	Arbovirus inh	RecA intein inh	others
CC1=CC=CC2=NC(=O)CC(C)(C(=O)N(CC(=O)NC3CCCC3)c3ccccc3C)N12 (configuration not stated)	-9%	-8	-4	3	0.4
COc1ccc(CN2CCn3nc(C(=O)NC4CC4)cc3C2=O)cc1	0%	·	5	1	-3.4
CCOC(=O)CCC(=O)N1CCOCCOCCN(C(=O)CCC(=O)OCC)CCOCC1	0%	-29	-4	6	3.0
Cc1cccnc1NC(=O)CSc1nnc(CNC(=O)c2cccc([N+](=O)[O-])c2)n1C	·	·	-4	·	0.3
O=C(O)[C@@H]1Cc2c([nH]c3ccccc23)C2CCC(=O)N21 (some centres not stated)	·	·	4	·	-4.6
CS(=O)(=O)NNC(=O)Cn1nnc(-c2ccc(OCc3ccccc3Cl)cc2)n1	·	·	42	·	-1.1
O=C(O)Cn1c(SCCOc2ccccc2)nc2ccccc21	0%	-27	-5	-1	·
CC1C/C(=N\NC(N)=S)c2cc(Cl)ccc2S1 (configuration not stated)	-3%	·	-12	·	-1.6
CNC(=O)NC1CCCCc2sccc21 (configuration not stated)	-10%	-43	2	0	-4.8
CCOC(=O)c1nc(NNC(=O)c2ccc([N+](=O)[O-])cc2)sc1C	·	·	8	·	-4.5
Cc1ccc(CNC(=O)[C@H]2C[C@@H]2[C@H](NP(=O)(c2ccccc2)c2ccccc2)c2ccccc2)o1	-14%	-14	-6	3	5.4
Cc1ccc(CN2C(=O)CCC2C(=O)NCc2ccc(F)cc2)cc1 (configuration not stated)	2%	-50	-8	6	0.5
c1ccc(NCc2nc3ccccc3n2CCOc2ccccc2)cc1	6%	-22	1	16	2.4
C=CCOC(=O)c1ccc(N2CCN(c3ccccc3)CC2)nc1	·	·	18	·	6.7
O=c1c2cccnc2[nH]c(=S)n1Cc1ccccc1	2%	-3	4	5	3.3
COc1ccc(N2CCN(C(=O)CCc3nc(-c4ccc(C)cc4)no3)CC2)cc1	-7%	-23	22	-3	-4.0
CCc1cc2c(cc3c(=O)n(CC(=O)NCCCN4CCCCCC4)nc(CC)n32)s1	·	·	2	·	-0.8
CCOC(=O)c1ccc(-c2ccc(/C=C(\C#N)C(=O)NCC3CCCO3)o2)cc1 (configuration not stated)	1%	-21	2	-1	-62
COC(=O)c1cc(NC(=O)c2cc(-c3ccc(C(F)(F)F)cc3)oc2C(F)(F)F)ccc1N1CCOCC1	22%	·	13	·	3.1
CC/C(=N\NC(=O)c1c(C)nc2ccccn12)c1ccccc1	·	·	7	·	-3.9
CSc1nc2nc(-c3ccc(F)cc3)c(CCN3CCN(C)CC3)cn2n1	6%	·	-11	1	-0.7
O=C1Nc2ccccc2C12NCCc1c2[nH]c2ccccc12 (configuration not stated)	-6%	-5	7	5	1.4
COCCN(C(=O)COC(=O)c1ccc(Cl)nc1)c1c(N)n(Cc2ccccc2)c(=O)[nH]c1=O	·	·	0	·	-1.1
O=C(O)Cc1ccc(OCc2ccc(Cl)nc2)cc1	-1%	·	-5	-1	-0.1
CCSc1nc2ccccc2n1S(=O)(=O)c1ccccc1	-2%	-45	3	0	·	Arbovirus inh repeat=1
The listing continues:
SMILES	Mtb H37Rv	YopH inh	Mtb bLac sens	Arbovirus inh	RecA intein inh	others
COc1ccc(CCN2CCCC(CN(C)C(=O)c3ccoc3)C2)cc1 (configuration not stated)	·	·	2	·	-4.2
COc1cccc(N(C(=O)CNC(=O)c2ccco2)C(C(=O)NC2CCCC2)c2ccco2)c1 (configuration not stated)	·	·	5	·	2.7
CCCn1c(SCC(=O)NCc2ccc(F)cc2)n[nH]c1=O	-3%	·	-2	5	-1.7
O=C(COc1coc(CN2CCc3ccccc3C2)cc1=O)Nc1ccccc1F	·	·	2	·	2.2
COC(=O)Cc1ccc(Oc2ncc(C(F)(F)F)cc2Cl)cc1	1%	·	0	3	0.0
COc1ccc(C(=O)CC2SC(N)=NC2=O)cc1 (configuration not stated)	-5%	·	-2	·	-18
CCCS(=O)(=O)N1CCC(C(=O)c2cccc(C(F)(F)F)c2)CC1	-5%	-37	-2	-5	0.6
CCOC(=O)CSc1nc2c(cnn2-c2ccc(F)cc2)c(=O)[nH]1	·	·	-7	·	2.2
Cc1ccc(-c2csc(NC(=O)c3cccc(S(=O)(=O)N4CCN(C)CC4)c3)n2)cc1	?	-17	-4	35*	-3.4
O=C(CSc1nc2c(c(=O)n1-c1ccc(F)cc1)SCC2)Nc1ccc2c(c1)OCO2	-14%	10	2	·	3.7
CCCC(=O)Nc1ccc(N2CCN(CC)CC2)c(Cl)c1	-4%	-23	3	-3	-0.7
O=C(NCc1ccco1)c1cc(-c2ccc(Cl)cc2)on1	3%	-45	0	-11	·
COc1ccc(-n2cnnc2SCC(=O)c2cc(C)n(Cc3cccs3)c2C)cc1	6%	-20	14	16	7.6
Cc1ccc(CS(=O)Cc2ccc(C(=O)NC3CCCCC3)o2)cc1 (configuration not stated)	·	·	1	·	0.5
O=C(Cc1ccc(Cl)cc1)OCc1nnc(-c2ccccc2)o1	4%	·	94	0	0.9
Cc1cccn2c(=O)c3cc(S(=O)(=O)c4ccc(Br)cc4)c(=N)n(C4CCCCC4)c3nc12	·	·	3	·	-1.8
CCN(CC(=O)Nc1c(F)cccc1F)C(=O)CSCC(=O)Nc1ccc(OC)cc1	·	·	-3	·	4.3
COc1ccc(CNC(=O)CSc2nn3c(=O)c(C(C)(C)C)nnc3s2)cc1OC	2%	·	-1	-1	1.0
CCNC(=O)Nn1c(-c2ccccc2)nc2ccccc2c1=O	-3%	-21	-4	9	3.9
CCCCN(CC)S(=O)(=O)N1CCC(C(=O)NCc2ccc(F)cc2)CC1	6%	-14	3	0	-2.1
Cc1ccc(C)c(S(=O)(=O)N2CCN(C(=O)c3cc(-c4cccs4)nn3-c3ccccc3)CC2)c1	·	·	-11	·	5.3
COC(=O)c1ccc(N/C=C/C(=O)c2ccc(OC)c(OC)c2)cc1	37%	-4	40	-9	-17
CC(C)[C@@H](C(=O)N1CCN(Cc2ccc3c(c2)OCO3)CC1)n1nnc2ccccc2c1=O	·	·	-1	·	0.4
Cc1ccc(NC2CCCN(C(=O)CN3C(=O)CSC3=O)C2)cc1C (configuration not stated)	·	·	2	·	-1.6
O=C(Nn1cnc2ccccc2c1=O)C1CCCCC1	-7%	-58	5	-5	0.5

3 compounds out of the list, sorted by number of heavy atoms, ascending.
SMILES	Mtb H37Rv	YopH inh	Mtb bLac sens	Arbovirus inh	RecA intein inh	others
CCCCN(CC)S(=O)(=O)N1CCC(C(=O)NCc2ccc(F)cc2)CC1	6%	-14	3	0	-2.1
CC(C)[C@@H](C(=O)N1CCN(Cc2ccc3c(c2)OCO3)CC1)n1nnc2ccccc2c1=O	·	·	-1	·	0.4
COc1cccc(N(C(=O)CNC(=O)c2ccco2)C(C(=O)NC2CCCC2)c2ccco2)c1 (configuration not stated)	·	·	5	·	2.7

More records
SMILES	Mtb H37Rv	YopH inh	Mtb bLac sens	Arbovirus inh	RecA intein inh	others
C=CCN1C(=O)C(CC(=O)Nc2ccc(OCCC)cc2)N(CCCN2CCN(Cc3ccccc3)CC2)C1=S (configuration not stated)	7%	·	93	-28	4.7
Cc1cc(C(=O)N/N=C/c2cc(Br)cc(Br)c2OC(=O)c2ccccc2)n[nH]1	11%	-35	4	-25	2.5
COc1ccc(CCNC(=O)CSc2nnnn2C)cc1OC	1%	·	-6	4	·
CCOc1ccc(CCNC(=O)CCn2cccc2)cc1OCC	-11%	-28	-6	1	-1.3
Cc1[nH]c2ccccc2c1/C=N/NC(=O)CCC(=O)NCc1ccccc1	2%	·	-1	-12	-2.3
COc1ccc(C(=O)Nc2ccccc2N2CCCC2)cc1S(=O)(=O)N1CCOCC1	·	·	-8	·	0.6
CCOC(=O)c1cnc(-n2nc(C)cc2C)nc1Nc1ccc(O)cc1	0%	·	-7	·	-2.6
COC(=O)C1=C(C)N=c2s/c(=C/c3ccoc3)c(=O)n2C1c1ccccc1 (configuration not stated)	-1%	-11	-6	2	16
O=C(COc1cc(Cl)c(Cl)cc1Cl)Nn1cnnc1	-6%	-18	-4	0	0.4
Cc1cc(SCC(=O)Nc2cccc(S(=O)(=O)N3CCOCC3)c2)nc2ccccc12	-1%	·	-5	2	2.7
CCOC(=O)/C(CCC[N+](C)(CC)CC)=N\O	-14%	-20	0	-4	-3.1
Cc1cc(SCC(=O)c2cc3ccccc3o2)nc2ccccc12	-1%	-153	·	-1	1.2
CN(CCC#N)C(=O)CSc1nnc(-c2c[nH]c3ccccc23)o1	·	·	-2	·	2.0
O=C(c1ccc(F)cc1Cl)N(c1ccccn1)C1CCCCC1	4%	·	1	4	-1.3
O=C(CCl)N(c1ccccc1)c1c[nH]c2ccccc12	3.8µM*	11	100	-26	82*
CCC(=O)Nc1cc(OC)c(NC(=O)c2ccccc2)cc1OC	6%	12	·	3	0.9
CCCOc1ccc(/C=c2\sc3ncnn3c2=O)cc1	-2%	·	43	-5	13
CCCN1Cc2cccc(C(=O)NCCc3ccccc3)c2C1=O	·	·	-2	·	1.9
CC(C)CC[n+]1ccn(-c2nc3ccccc3nc2[N-]S(=O)(=O)c2ccc(Cl)cc2)c1	-3%	·	2	·	-16
COC(=O)c1ccc(CSc2nc3sc(C)c(C)c3c(=O)[nH]2)cc1	-6%	·	0	·	0.5
COc1ccc(N2Cc3ccccc3C2)cc1Cl	>100µM*	-18	-3	13	2.7	Arbovirus inh repeat=1
CCOC(=O)c1c(NC(=O)COC(=O)Cc2c[nH]c3ccccc23)sc(C(=O)N(C)C)c1C	·	·	0	·	-2.6
Cn1cc(C(=O)NC2CCCCC2)c(=O)c2cc(S(=O)(=O)N3CCOCC3)ccc21	·	·	-1	·	-3.4
CCCCOc1ccccc1C1C(C(=O)OC)=C(C)N(C)C(C)=C1C(=O)OC	2%	-39	-6	-10	-0.2	Arbovirus inh repeat=-13
NNC(=O)CCC(=O)Nc1ccccc1	1%	·	0	-2	·

As a short view, 3 of the compounds above:
SMILES	Mtb H37Rv	YopH inh	Mtb bLac sens	Arbovirus inh	RecA intein inh	others
Cc1[nH]c2ccccc2c1/C=N/NC(=O)CCC(=O)NCc1ccccc1	2%	·	-1	-12	-2.3
COc1ccc(C(=O)Nc2ccccc2N2CCCC2)cc1S(=O)(=O)N1CCOCC1	·	·	-8	·	0.6
CCOC(=O)c1cnc(-n2nc(C)cc2C)nc1Nc1ccc(O)cc1	0%	·	-7	·	-2.6

(list continues)
SMILES	Mtb H37Rv	YopH inh	Mtb bLac sens	Arbovirus inh	RecA intein inh	others
O=[N+]([O-])c1ccc(O)c(-c2nc(-c3ccccc3)c(-c3cccs3)[nH]2)c1	28%	-13	91	-30	20
CSCC[C@H](NC(=O)COc1ccc(Cl)cc1)C(=O)N1CCC2(CC1)NCCc1[nH]cnc12	·	·	-3	·	-0.5
Cc1ccc(N2C(=O)CC3(CC4C=CC3C4)C2=O)cc1 (configuration not stated)	11%	-35	-8	9	0.6
COc1cc2c(cc1NC(=O)CC1SC(N3CCCC3)=NC1=O)oc1ccccc12 (configuration not stated)	-5%	7	4	33*	-4.2
C=CCNC(=O)c1onc(CSc2ccc(F)c(F)c2)c1C(=O)O	13%	-4	5	14	0.7
O=C(Cn1nnc(-c2cccs2)n1)Nc1ccccc1C(F)(F)F	-4%	·	-6	-8	-4.1
CC(CCn1cccn1)NC(=O)CCc1nnc(C2CCCCC2)o1 (configuration not stated)	1%	·	2	7	-1.8
COc1cc(/C=N/Nc2ccccc2C(F)(F)F)ccc1O	9%	·	2	-7	5.1
CCOC(=O)c1ccc(NS(=O)(=O)c2c(C)n(C)c(=O)n(C)c2=O)cc1	-1%	-59	-3	-4	-12
COC(=O)Cc1cn(-c2ncc(C(F)(F)F)cc2Cl)c2ccccc12	3%	-11	6	7	6.8
O=C(Nc1ccc(F)cc1)Nc1cc(OCC(F)(F)F)cc(OCC(F)(F)F)c1	40%	-10	-3	-18	2.9
CC(C)C(=O)N1CCN(c2ccccc2NC(=O)COc2ccccc2)CC1	-7%	·	-4	-2	0.5
CC1CCc2nn(CC(=O)Nc3c(F)cc(F)cc3Br)cc2C1 (configuration not stated)	1%	-50	-1	3	1.0	Arbovirus inh repeat=7
Cc1noc(C)c1COC(=O)CCN1c2ccccc2Sc2ccccc21	-8%	-35	-2	9	·
NC1=NC[C@@H](Cc2ccc(O)cc2)N1CCc1cccc(F)c1	-7%	·	-2	·	2.9
CCN(CC)S(=O)(=O)c1cccc(C(=O)N/N=C/c2ccc(OC)c(O)c2)c1	5%	-25	-9	0	0.3
CC1CCC(C(C)C)C(OC(=O)COC(=O)c2ccc(N)cc2)C1 (configuration not stated)	69%	-3	4	2	3.6
O=C(ONC1=NCCCCC1)c1c(F)cccc1F	-10%	-6	4	5	0.4
Cc1ccc(C)c(C(=O)COC(=O)c2ccc(Br)o2)c1	11%	-12	62	-2	4.3	Arbovirus inh repeat=4

From PubChem

A portion of the library, so the mix of outcomes need not match the whole.
